Screens (PubChem)
PV pol inh: inhibitors of poliovirus RNA polymerase binding and polymerization; 0.66% of 150,000 active; poliovirus polymerase elongation, fluorescence polarization; stronger effect = lower value; % elongation, % (compound at 16.7 µg/mL); P03300; in the data active means % elongation below about 90%; further: some results filed as inactive read as strong as hits
Target sequence (P03300 1749-2209 limits assumed): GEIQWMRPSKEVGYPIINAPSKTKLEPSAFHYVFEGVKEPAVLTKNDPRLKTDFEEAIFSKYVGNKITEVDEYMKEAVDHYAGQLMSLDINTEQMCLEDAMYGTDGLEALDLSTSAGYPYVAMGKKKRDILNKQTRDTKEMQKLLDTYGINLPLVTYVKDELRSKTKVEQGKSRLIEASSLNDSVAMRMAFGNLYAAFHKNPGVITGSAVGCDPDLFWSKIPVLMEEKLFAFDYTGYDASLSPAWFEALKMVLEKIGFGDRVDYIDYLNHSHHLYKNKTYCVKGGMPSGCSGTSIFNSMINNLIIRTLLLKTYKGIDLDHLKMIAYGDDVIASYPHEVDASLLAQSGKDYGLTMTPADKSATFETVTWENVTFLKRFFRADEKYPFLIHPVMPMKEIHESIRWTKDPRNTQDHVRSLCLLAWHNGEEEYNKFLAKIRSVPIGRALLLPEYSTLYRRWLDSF
Mtb MbtI inh: inhibitors of Mycobacterium tuberculosis siderophore enzyme MbtI; P9WFX0; purified MbtI enzyme, fluorescence intensity read-out; inhibition, %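 (about 17 µg/mL by stock and volumes)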; 0.89% of 100,000 active;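 active means above 50% in both replicates, above 80% if mildly self-fluorescent; inactive means the rest, strongly fluorescent compounds included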;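 further: 0% = mean of negative and 100% = mean of positive controls; one replicate is shown; some compounds called inactive have numbers as strong as hits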
Mtb MenB inh: Mtb MenB enzyme inhibition; P9WNP5; MenB enzyme assay, absorbance read-out; some hits fall short of the stated cut; inhibition, %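 (about 12 µg/mL by stock and volumes)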; 0.43% of 100,000 active; AID 540299;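 active means mean of two replicates above 30%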;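 further: 0% = no compound and 100% = wells with inactive enzyme; the first replicate is given; strong numbers were not always called active; inactives centre near -10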
Target sequence (P9WNP5 whole entry, looked up): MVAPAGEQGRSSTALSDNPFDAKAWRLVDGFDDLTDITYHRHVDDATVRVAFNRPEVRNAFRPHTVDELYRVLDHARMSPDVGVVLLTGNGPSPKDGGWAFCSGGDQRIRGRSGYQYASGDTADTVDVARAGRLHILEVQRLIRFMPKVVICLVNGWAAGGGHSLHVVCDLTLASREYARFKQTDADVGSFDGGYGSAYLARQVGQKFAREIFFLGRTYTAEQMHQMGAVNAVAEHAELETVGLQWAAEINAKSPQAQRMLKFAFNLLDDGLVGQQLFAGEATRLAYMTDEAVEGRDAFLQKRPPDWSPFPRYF
PV pol inh intensity: recorded beside PV pol inh, whose call it bears; % elongation; measured here: total intensity read-out; formula for this scale not given here;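 total fluorescence in place of polarization; lower means less elongation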
* hit, by the source's call; / = not tested or not shown; & = joins results of further samples.

SMILES | PV pol inh | PV pol inh intensity | Mtb MbtI inh | Mtb MenB inh
C=CCn1c(C)cc(C(=O)COC(=O)COc2ccccc2C#N)c1C | 102 | 105 | 3 | -50
CN(C)c1ccc(C2OCCO2)cc1 | 101 | 111 | / | -24
Cc1ccc2c(Cl)c(C(=O)N(Cc3cccs3)C3CCS(=O)(=O)C3)sc2c1 (configuration not stated) | 99 | 98 | -16 | -29
Fc1ccc(C2CC(c3ccc(Cl)cc3)=Nc3nc(-c4ccccc4)cn32)cc1 (configuration not stated) | 102 | 100 | -5 | -24
CCCn1c(SCC(=O)N2CCCC2)nnc1C(C)C | 101 | 100 | -13 | -16
COc1ccc(NC(=O)CN(C)C2CCCc3ccccc32)c(OC)c1 (configuration not stated) | 96 | 101 | -3 | -6
CCC(C)(C)NCC(=O)Nc1ccccc1Br | 105 | 106 | -6 | -6
C[C@@H]1O[C@@H](O[C@H]2C[C@@H](O)[C@]3(CO)C4C(CC[C@]3(O)C2)[C@@]2(O)CC[C@H](C3=CC(=O)OC3)[C@@]2(C)C[C@H]4O)[C@H](O)[C@H](O)[C@H]1O (some centres not stated) | 99 | 96 | 3 | 2
Cc1cccc(NC(=O)C2CCCN(c3cnccn3)C2)c1 (configuration not stated) | 103 | 103 | -247 | -3
CCCCCCSc1nnc(/N=C/NO)s1 | 103 | 109 | / | -52
CCOC(=O)c1cnc(SCC(=O)OCN2C(=O)c3ccccc3C2=O)nc1N | 108 | 107 | 0 | -12
CCc1nc2sc(C)c(C)c2c(=O)n1N | 95 | 97 | / | -2
Cc1cccc(NC(=O)COC(=O)Cn2cnc3ccccc3c2=O)c1 | 107 | 120 | -1 | -5
CN(C(=O)COc1nnc(-c2cccs2)c(-c2cccs2)n1)c1ccccc1 | 106 | 110 | 5 | -54
CSC(SC)=C1C(=O)OC(C)(C)OC1=O | 99 | 100 | 33 | -18
O=C(NCC1CCCO1)c1cc2c(=O)n3ccccc3nc2s1 (configuration not stated) | 99 | 101 | 109 | 8
Nc1sc(-c2ccccc2)c(Cc2ccccc2)c1C(=O)O | 101 | 95 | 10 | 3
COc1cc(/C=N/N=C(N)N)ccc1OC(=O)c1ccc(C)cc1 | 102 | 101 | 11 | 0
CCc1c(CSC(=N)N)csc1C | 98 | 100 | -6 | -4
CC1CC2(NC(=O)NC2=O)C(C)CN1C (configuration not stated) | 101 | 103 | -23 | -10
Cc1c(C(=O)NCc2ccc(N3CCN(C)CC3)cc2)cnn1-c1ccc(Cl)cc1 | 103 | 107 | -8 | -10
CCOC(=O)c1ccc(NC(=O)c2ccc(NC(=O)C3CCCO3)cc2)cc1 (configuration not stated) | 102 | 103 | -2 | -16
COc1cccc2c1OCc1sc3[nH]c(=S)[nH]c(=O)c3c1-2 | 99 | 102 | 68 | -48
CC(C)OC(=O)CSc1nnc(-c2ccccc2)n1Cc1ccco1 | 92 | 91 | -12 | -12
Cc1oc(-c2ccc(C(=O)NCCN3CCCCC3)cc2)nc1COc1ccccc1 | 103 | 101 | -5 | -13
O=C(Cc1cn2ccsc2n1)N/N=C1/CCSc2ccc(F)cc21 | 97 | 104 | -37 | -2
O=C(CSc1ccccc1)N/N=C/c1ccccc1O | 99 | 103 | 4 | -36
CC(=O)n1c2ccccc2c2nc(N)sc21 | 81* | 77* | 52 | -8
Cc1noc(C)c1NC(=O)NC(c1ccccc1)c1ccccc1 | 101 | 93 | -1 | -13
C=CCNC(=S)NCc1ccccc1 | 99 | 102 | 8 | -9
NC(=O)c1ccccc1OCCOc1ccccc1 | 104 | 110 | 1 | -8
C[C@@H]1CCC2[C@](C)(CO)[C@@H](O)CC[C@]2(C)[C@@]12CCC1(COC(=O)C1)O2 (some centres not stated) | 102 | 104 | -4 | 0
Clc1cccc(C(c2nnc(-c3ccccc3)o2)N2CCN(c3ccccc3)CC2)c1 (configuration not stated) | 102 | 103 | 14 | 12
CCOC(=O)C1=C(C)NC(C(=O)NCCCN2CC(C)CC(C)C2)CS1 (configuration not stated) | 104 | 99 | 11 | 8
Cc1cnc(C(=O)OCC(=O)NCC2CCCCC2)cn1 | 100 | 96 | -12 | -12
CCN1CCCC1CNC(=O)Nc1ccc2c(c1)N(C)C(=O)c1ccccc1S2 (configuration not stated) | 100 | 102 | -5 | 6
O=C(N(Cc1ccccc1)c1ccccn1)C12CC3CC(CC(C3)C1)C2 | 107 | 110 | / | -3
c1ccc(CCCNc2ncccn2)cc1 | 101 | 103 | 32 | 9
c1ccc2oc(CCc3nc4ccccc4o3)nc2c1 | 99 | 105 | -3 | 18
Cc1c(OCC(F)(F)F)ccnc1CS(=O)c1nc2ccccc2[nH]1 (configuration not stated) | 99&99 | 103&101 | 44&74 | -5&-10
Cc1ccc(NC(=O)C(CC(C)C)NC(N)=O)cc1Cl (configuration not stated) | 97 | 90 | -8 | 2
NC(=O)CSCc1cc(Cl)c2c(c1)OCCCO2 | 102 | 98 | -3 | -29
CN1C2CCC1CC(OC(=O)c1ccc(Cl)cc1)C2 (configuration not stated) | 101 | 101 | 2 | 0
C=CCn1c(COc2ccccc2OC)nc2ccccc21 | 104 | 107 | -27 | -20
O=S(=O)(c1ccc(I)cc1)N1CCCCCC1 | 102 | 103 | 1 | -19
C=CCN(S(=O)(=O)c1ccc(Cl)cc1)S(=O)(=O)c1ccccc1OC | 98 | 102 | 13 | -23
CC1CCN(c2ccc(C(F)(F)F)cn2)CC1 | 106 | 106 | -5 | -15
COc1ccc(-c2nnc(SCC(=O)N(C)C)n2C2CCCCC2C)cc1 (configuration not stated) | 103 | 109 | 14 | -14
COc1ccc(-n2cnc3nc(C)c(C(=O)/C=C/N(C)C)c(-c4ccccc4)c32)cc1 | 99 | 100 | 16 | 0
Cc1c(Cc2ccccc2)c(=O)oc2cc3oc4c(c3cc12)CCCC4 | 105 | 99 | 61 | 5
COc1ccc(NC(=O)c2ccc3c(c2)N(C)CCS3)cc1 | 97 | 92 | -4 | -9
CCn1c(=N)n(CCOc2ccc(Cl)cc2)c2ccccc21 | 103 | 102 | -3 | 5
Cc1ccc(Nc2nc(N)nc(COC(=O)C3=COCCO3)n2)cc1 | 107 | 100 | -3 | -1
CC(C)(C)C(=O)OC[C@H]1O[C@@H](n2cnc3c(=O)[nH]cnc32)C[C@@H]1O | 105 | 105 | -4 | -25
O=C(CSc1nc2[nH]c(=O)cc(O)c2s1)Nc1ccccc1 | 100 | 103 | 5 | -93
FC(F)Sc1nnc(-c2ccccc2)n1-c1ccccc1 | 104 | 101 | -14 | -40
Cc1cccc(N2CCCC2=Nc2ccc(Br)cc2C#N)c1 | 101 | 101 | -14 | -8
CN(C)/C=C(\Sc1ncccn1)C(=O)c1ccc(Cl)cc1 | 103 | 106 | 12 | -15
CC1CCN(C(=O)CS(=O)(=O)Cc2ccccc2)CC1 | 104 | 104 | -5 | -25
CCc1ccc(NC(=O)C2CCN(C(=O)c3ccccc3C)CC2)cc1 | 101 | 103 | 6 | -16

Filtered by structure, the entries above containing a Cl atom
SMILES | PV pol inh | PV pol inh intensity | Mtb MbtI inh | Mtb MenB inh
Cc1ccc2c(Cl)c(C(=O)N(Cc3cccs3)C3CCS(=O)(=O)C3)sc2c1 (configuration not stated) | 99 | 98 | -16 | -29
Fc1ccc(C2CC(c3ccc(Cl)cc3)=Nc3nc(-c4ccccc4)cn32)cc1 (configuration not stated) | 102 | 100 | -5 | -24
Cc1c(C(=O)NCc2ccc(N3CCN(C)CC3)cc2)cnn1-c1ccc(Cl)cc1 | 103 | 107 | -8 | -10
Clc1cccc(C(c2nnc(-c3ccccc3)o2)N2CCN(c3ccccc3)CC2)c1 (configuration not stated) | 102 | 103 | 14 | 12
Cc1ccc(NC(=O)C(CC(C)C)NC(N)=O)cc1Cl (configuration not stated) | 97 | 90 | -8 | 2
NC(=O)CSCc1cc(Cl)c2c(c1)OCCCO2 | 102 | 98 | -3 | -29
CN1C2CCC1CC(OC(=O)c1ccc(Cl)cc1)C2 (configuration not stated) | 101 | 101 | 2 | 0
C=CCN(S(=O)(=O)c1ccc(Cl)cc1)S(=O)(=O)c1ccccc1OC | 98 | 102 | 13 | -23
CCn1c(=N)n(CCOc2ccc(Cl)cc2)c2ccccc21 | 103 | 102 | -3 | 5
CN(C)/C=C(\Sc1ncccn1)C(=O)c1ccc(Cl)cc1 | 103 | 106 | 12 | -15

(listing goes on)
SMILES | PV pol inh | PV pol inh intensity | Mtb MbtI inh | Mtb MenB inh
Cc1ccccc1-c1nnc(CN2CCC(C)CC2)o1 | 101 | 104 | -8 | -7
Cc1ccc(C)c(N2CCN(C(=O)NC3CCCCC3)CC2)c1 | 104 | 102 | -6 | -21
O=C(Cc1nc2ccccc2[nH]1)c1ccccc1 | 98 | 89 | 7 | /
O=C(c1cc2ccccc2oc1=O)N1CCCc2ccccc21 | 99 | 103 | -6 | -19
CC(C)N(Cc1ccc(C(=O)O)o1)C(C)C | 101 | 101 | -6 | 4
Cc1ccc(S(=O)(=O)NC(=O)NN2CC3CCCC3C2)cc1 (configuration not stated) | 104&99 | 102&102 | -10&-15 | -2&1
CC1(C(=O)Nc2cccc(Br)c2)CC(=O)N=C2C=CC=CN21 (configuration not stated) | 100 | 102 | / | 12
CCOc1ccccc1C(=O)N=C1NC(=O)CS1 | 102 | 104 | 14 | -14
O=C(CC12CC3CC(CC(C3)C1)C2)NCC(=O)Nc1cccnc1 | 99 | 107 | -11 | -1
C=CCNc1nc2c(C)cccn2c(=O)c1/C=C1\SC(=S)NC1=O | 72 | 189 | -3 | -10
COc1ccc(-n2cc(C(=O)NCCc3c[nH]c4ccccc34)nn2)cc1 | 102 | 103 | -13 | 6
O=C(Nc1cccc(OC(=O)N2CCOCC2)c1)N1CCCCC1 | 109 | 100 | -3 | -20
CS(=O)(=O)c1ccc2c(c1)sc1nc(-c3ccccc3Cl)cn12 | 99 | 97 | 37 | -5
C=CCNC(=S)N/N=C1\CC2CC=CC12 (configuration not stated) | 99 | 98 | -4 | -56
CSC(=NC#N)/N=c1/nc(SC)n(C)n1C | 103 | 107 | 6 | 8
O=C(CSc1ncccn1)c1ccc(C2CCCCC2)cc1 | 104 | 104 | -8 | /
CCC(CO)n1c(SCn2nnc3ccccc3c2=O)nc2cc(OC)c(OC)cc2c1=O (configuration not stated) | 104 | 106 | 3 | -11
CN(CC(=O)Nc1cccc2ccccc12)C(=O)C1=COCCO1 | 103 | 94 | 1 | -34
CCCCSC1=NC(C)(C)Nc2ccccc21 | 99 | 103 | -13 | -22
O=C(COC(=O)C1CCCCN1S(=O)(=O)c1ccccc1)Nc1ccccc1C(=O)NC1CC1 (configuration not stated) | 106 | 103 | 5 | -5
COC(=O)c1cc(-c2ccc(Cl)cc2)n[nH]1 | 104 | 104 | -5 | -3
CCn1c(-c2nc3ccccc3n2CC)nc2ccccc21 | 106 | 97 | / | 1
O=S(=O)(c1ccc(-c2ccno2)s1)N1CCCC1 | 102 | 107 | -6 | -11
CCc1cc(=O)oc2c(C)c3c(cc12)CN(Cc1ccccc1)CO3 | / | / | -57 | -10
CCC(Cc1ccccc1)NC(=O)c1c[nH]c2ccc(S(=O)(=O)N3CCC(C)CC3)cc2c1=O (configuration not stated) | 103 | 104 | -14 | 10
CC(=O)Nc1ccc(C(=O)Nc2ccc(S(C)(=O)=O)cc2)cc1 | 105 | 104 | 9 | 2
COc1ccc(C2CCCCCN2C(=O)Cc2noc3ccccc23)cc1 (configuration not stated) | 99 | 93 | 11 | -8
Nn1c(SCCOc2ccccc2)nnc1-c1ccccc1 | 79* | 73* | 34 | -30
CC(=O)Nc1nccc(-c2cc(-c3cccc(C(F)(F)F)c3)no2)n1 | 100 | 108 | -10 | -7
CCOC(=O)c1[nH]cnc1C(=O)N1CCOCC1 | 103 | 107 | 1 | 2
COc1ccc(CC(C(=O)Nc2ccccc2)C(C)C(=O)O)cc1 (configuration not stated) | 102 | 102 | 5 | -13
Cc1c(C(=O)N2CCN(Cc3nc4ccccc4s3)CC2)oc2ccccc12 | 99 | 107 | -10 | -24
CC(C)C(NS(=O)(=O)c1ccccc1)C(C)C | 105 | 103 | -17 | -11
COC(=O)c1cc(S(=O)(=O)NCC2CCN(CCc3cccs3)CC2)cn1C | 101 | 101 | 8 | -26
CC1(C)CC(=O)C2=C(C1)NC(=S)NC2C1CCCCC1 (configuration not stated) | 101 | 104 | -1 | -20
Cc1ccc(-c2cc(C(F)(F)F)n3nc(C(=O)N4CCN(c5ccccc5)CC4)cc3n2)cc1 | 101 | 96 | / | 4
CC1=NN(C(=O)C(C)C)C(O)(C(F)(F)F)C1 (configuration not stated) | 101 | 103 | -12 | -3
Cc1ccc(C)c(N=Cc2ccc(C#N)cc2)c1 | 106 | 107 | / | -3
COCCN1CN(S(=O)(=O)c2ccccc2)c2nc3ccccc3nc21 | / | / | 23 | -23
COCCn1c(C)cc(O)c(C(c2ccncc2)N2CCCCC2)c1=O (configuration not stated) | 101 | 101 | -5 | -12

Overlap with the part before: 2 entries, followed by the next part.
SMILES | PV pol inh | PV pol inh intensity | Mtb MbtI inh | Mtb MenB inh
COCCN1CN(S(=O)(=O)c2ccccc2)c2nc3ccccc3nc21 | / | / | 23 | -23
COCCn1c(C)cc(O)c(C(c2ccncc2)N2CCCCC2)c1=O (configuration not stated) | 101 | 101 | -5 | -12
CC(C)n1cnc2cc(NCc3ccccc3O)ccc21 | 102 | 106 | 110 | 0
O=C1NC(=O)/C(=C\c2cccc(C(F)(F)F)c2)S1 | 101 | 100 | 16 | -19
O=C(CSc1nc2sc3c(c2c(=O)n1Cc1ccco1)CCC3)Nc1nccs1 | 100 | 101 | -4 | 3
O=C(NCC(=O)N1CCCc2ccccc21)C1CCCCC1 | 95 | 94 | 0 | -2
